Bioassay records (PubChem BioAssay)
OX1R antag: blocks the human orexin 1 receptor | O43613 | hit rate 1.8% among 330,000 | inhibition, % at 6.6 µM | AID 485270 | OX1R-expressing cells, FRET antagonist read-out; in the data active = inhibition mostly above about 38%, no sharp cut-off; inactive = mostly below about 40%;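 also: 0% = agonist challenge alone and 100% = reference antagonist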
Target sequence (O43613 whole entry, looked up): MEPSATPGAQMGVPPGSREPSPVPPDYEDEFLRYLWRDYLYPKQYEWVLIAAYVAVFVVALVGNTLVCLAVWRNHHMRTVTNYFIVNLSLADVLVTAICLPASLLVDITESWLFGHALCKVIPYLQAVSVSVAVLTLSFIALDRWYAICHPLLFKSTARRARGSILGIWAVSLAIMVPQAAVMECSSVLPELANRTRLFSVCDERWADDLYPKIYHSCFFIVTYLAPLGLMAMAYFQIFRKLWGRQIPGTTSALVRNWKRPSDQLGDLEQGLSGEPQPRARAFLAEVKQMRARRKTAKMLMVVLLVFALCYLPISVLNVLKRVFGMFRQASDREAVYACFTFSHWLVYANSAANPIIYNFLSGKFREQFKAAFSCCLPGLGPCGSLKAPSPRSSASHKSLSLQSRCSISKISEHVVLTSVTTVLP
An asterisk follows results filed as active. Some of the compounds tested, and most or all hits are left out here.

SMILES	OX1R antag
Cc1ccc(C2N3CCCN23)cc1 (centres undefined)	-2
CC1=C(C(=O)Nc2ccccc2)SCCO1	14
Cn1c(O)c(C=Nc2ccc(Cl)cc2)c(=O)n(C)c1=O	15
O=C(O)C(O)(c1ccccc1)C1CCCC1 (centres undefined)	9
Cc1ccc(N2C(=O)NC(=O)/C(=C\c3ccc([N+](=O)[O-])o3)C2=O)cc1	25
CCOC(=O)C1CCCCC12C(C#N)=C(N)Oc1n[nH]c(C)c12 (centres undefined)	25
C#CC1(O)C=CC2C3CCC4=CC(=O)CCC4C3CCC21CC (centres undefined)	6
CCC(C)OC(=O)c1c(N)n(Cc2cccs2)c2nc3ccccc3nc12 (centres undefined)	24
CN(C)c1nc(OCCNC(=O)COc2ccc(Cl)cc2Cl)nc(N2CCCCC2)n1	23
C[C@H]1CCC[C@H](O)CCCCCc2cc(O)cc(O)c2C(=O)O1	11
CC(C)NCC(O)c1ccc(C2CCCC2)cc1 (centres undefined)	-7
FC(F)(F)c1ccccc1N1CC1c1ccncc1 (centres undefined)	5
CCOc1ccc2[nH]c(=O)c(CN(CCO)C3(c4nnnn4C4CCCCC4)CCCCC3)cc2c1	31
Cc1ccc(C(=O)Nc2ccc(Cl)cc2C(=O)c2ccccc2)cc1	2
CSc1nc2ccccc2c(=O)n1-c1cccnc1	8
COc1ccc2c(c1)[nH]c1c(C)nccc12	6
O=C(c1ccc2c(c1)ncn2-c1ccc(F)cc1F)N1CCC2(CC1)OCCO2	12
CCCC(=O)N(C)C1=Nc2ccc(Cl)cc2C(c2ccccc2)=[N+]([O-])C1	9
O=C(Cc1ccccc1)OC(COCc1ccccc1)CN1CCOCC1 (centres undefined)	1
CC(C)(C)P(=O)(c1ccncc1)N1CCCC1 (centres undefined)	7

Some of the entries above in a different format.
COc1ccc2c(c1)[nH]c1c(C)nccc12
  OX1R antag: 6
Cc1ccc(C(=O)Nc2ccc(Cl)cc2C(=O)c2ccccc2)cc1
  OX1R antag: 2

4 records picked at random from those above:
SMILES	OX1R antag
O=C(Cc1ccccc1)OC(COCc1ccccc1)CN1CCOCC1 (centres undefined)	1
COc1ccc2c(c1)[nH]c1c(C)nccc12	6
CCOc1ccc2[nH]c(=O)c(CN(CCO)C3(c4nnnn4C4CCCCC4)CCCCC3)cc2c1	31
Cn1c(O)c(C=Nc2ccc(Cl)cc2)c(=O)n(C)c1=O	15

Back to the main list with the 4 entries that preceded the break.
SMILES	OX1R antag
O=C(c1ccc2c(c1)ncn2-c1ccc(F)cc1F)N1CCC2(CC1)OCCO2	12
CCCC(=O)N(C)C1=Nc2ccc(Cl)cc2C(c2ccccc2)=[N+]([O-])C1	9
O=C(Cc1ccccc1)OC(COCc1ccccc1)CN1CCOCC1 (centres undefined)	1
CC(C)(C)P(=O)(c1ccncc1)N1CCCC1 (centres undefined)	7
CCN(CC)CCOC(=O)C(O)(c1ccccc1)c1ccccc1	17
COc1ccc(/C=C2/C(=O)NC(=O)N(c3ccc(C)c(C)c3)C2=O)cc1CN1C(=O)c2ccccc2C1=O	13
CC1CCC[C@H](O)CCCCCc2cc(O)cc(O)c2C(=O)O1 (some centres undefined)	19
CC(C)c1ccc(-n2c(O)c(C=NCCN3CCNCC3)c(=O)[nH]c2=S)cc1	10
COc1ccc(CCNCc2cccn2C)cc1OC	10
COC(=O)C1=C(c2ccc3ccccc3c2)C[C@@H]2CC[C@H]1N2C(=O)NCCO	4
CCC(C)N=Cc1c(O)n(-c2ccccc2)c(=O)[nH]c1=O (centres undefined)	5
CC1=C(C/C(C)=C/c2ccccc2)/C(=C/CO)[C@H](O)[C@](C)(O)C12CC2	17
COc1ccc(CCn2c(O)c(C=Nc3ccc(NC(C)=O)cc3)c(=O)[nH]c2=O)cc1OC	2
CCOC(=O)C1CCN(/C=C2\C(=O)NC(=S)N(CC)C2=O)CC1	1
CC(C(=O)N1CCC2(CC1)OCCO2)C1Sc2ccccc2NC1=O (centres undefined)	15
N#CCCn1cc(C(=O)NCc2ccccc2)c(-c2ccccc2)n1	22
CN1C(=O)C(c2ccccc2)C(=O)N(C)C1=O	5
O=C(Cc1ccccc1)OCC(=O)N1CCN(S(=O)(=O)c2ccc(Cl)cc2)CC1	14
CC1CCC(C(C)C)C(OC(=O)COC(=O)c2ccccc2N)C1 (centres undefined)	18
CN(C)CCn1cnc2ccccc21	6
O=C1/C(=C\c2cc3c(cc2Cl)OCO3)N2CCC1CC2	26
CO[C@H]1C=C2CCN(C)[C@H]2C2c3cc4c(cc3C(=O)O[C@@H]21)OCO4 (some centres undefined)	16
COC(=O)C1=Nc2ccccc2/C1=C\c1c(O)n(C)c(=O)n(C)c1=O	2
CC(=NCc1cccnc1)c1c(O)n(-c2ccccc2C)c(=O)[nH]c1=O	5
COCCCNC(=O)c1c(NC(=O)c2ccccc2)n(Cc2ccccc2)c2nc3ccccc3nc12	10
CCCNC(=O)N1[C@H]2CC[C@@H]1C(C(=O)OC)=C(c1cccc(OC)c1OC)C2	17
O=c1[nH]c(=O)n(Cc2ccccc2)c(O)c1/C=N/Nc1c(F)c(F)c(F)c(F)c1F	3
CCC12CN3CCN(CC(C3)C1O)C2 (centres undefined)	4
COC(=O)C(c1ccccc1)N1CCCCCC1 (centres undefined)	23
Oc1c(Cl)cc(Cl)cc1CN1CCN(Cc2ccccc2)CC1	-1

Six of the compounds above, bar-delimited.
compound | OX1R antag
COCCCNC(=O)c1c(NC(=O)c2ccccc2)n(Cc2ccccc2)c2nc3ccccc3nc12 | 10
CCCNC(=O)N1[C@H]2CC[C@@H]1C(C(=O)OC)=C(c1cccc(OC)c1OC)C2 | 17
O=c1[nH]c(=O)n(Cc2ccccc2)c(O)c1/C=N/Nc1c(F)c(F)c(F)c(F)c1F | 3
CCC12CN3CCN(CC(C3)C1O)C2 (centres undefined) | 4
COC(=O)C(c1ccccc1)N1CCCCCC1 (centres undefined) | 23
Oc1c(Cl)cc(Cl)cc1CN1CCN(Cc2ccccc2)CC1 | -1
